Compound activity from PubChem BioAssay.
NPYLR7 ag: activates Aedes aegypti NPYLR7 receptor. HEK293T NPYLR7/Galpha15, GCaMP6s calcium fluorescence. activation, % at 10 µM. actives 0.15% (n = 270,000); in the data active means activation above about 40%;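 further: 0% = vehicle and 100% = reference agonist at the receptor; some compounds past the cut are filed as inactive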
NPYLR7 ag max-min: also measured in NPYLR7 ag; calls as there; activation, %; measured here: Max-Min RFU normalised activation; some inactives read as strong as hits;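 span of the calcium signal over five minutes; 0% = vehicle and 100% = native peptide agonist; compound fluorescence can raise it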
Active calls of the source: *; & = joins results of further samples. Not all compounds are listed; rates above refer to the full screens.

SMILES	NPYLR7 ag	NPYLR7 ag max-min
Cc1cc(C)cc(N(C)C(=O)c2cccc(N3CCNC3=O)c2)c1	4&2	3&2
Cc1[nH]n(-c2cccc(Cl)c2)c(=O)c1C1=C([n+]2ccccc2)C(=O)N(CC(C)C)C1=O	-3	-1
Cn1c(-c2ccc(CN3CCn4cncc4C3)o2)nc2ccccc21	17	15
NC(=O)c1cccc(NC(=O)c2ccc(F)cc2Br)c1	-7	-10
CC(=O)Nc1cccc(C(=O)N(C)C2CCCN(CCCc3ccccc3)C2)c1 (stereo not drawn)	4	1
FC(F)(F)c1cnc(C2CCN(c3cncc(Cl)n3)CC2)[nH]1	5	1
O=C(CCC1CCCC1)N1CCC(n2c(-c3ccccc3)nc3ccc(F)cc32)CC1	14	5
CCNC(=S)N(Cc1cc(Cl)ccc1OCc1nc(CO)cs1)C(C)C	25	34
CCOC(=O)CCCCCC(=O)N1CCN(CCCOC(c2ccc(Cl)cc2)c2ccc(Cl)cc2)CC1	-1	-6
O=C(O)c1nn(-c2cccc(C(F)(F)F)c2)c(=O)n(Cc2ccccc2F)c1=O	24	34
Cc1ccc(C(=O)NCCc2cc3c(C)ccc(C)c3[nH]c2=O)cc1	-2	17
CCc1cccc2c(C(CC(=O)NCCOC)c3ccccc3)cn(CC)c12 (stereo not drawn)	-1	11
NNC(=O)C1SCCN1c1ccccc1 (stereo not drawn)	-4	-4
CN(C)C[C@H]1O[C@@H](CO)[C@@H](O)[C@H]1N(C)CCc1ccccc1	-6	-12
O=C(c1cc(COc2ccccc2)on1)N1CCCC(OCc2cccnc2)C1 (stereo not drawn)	3	0
CC1=NN(CCN2CCCCC2)c2nc3c(c(=O)n(Cc4cccc(C)c4)c(=O)n3C)n2C1	5	0
CCc1[nH]n(-c2cccc(Cl)c2)c(=O)c1C1=C([n+]2cc(C)cc(C)c2)C(=O)N(C(C)C)C1=O	-10	-4
Cc1cccc(Cn2c(C)c(C)c(C)c2C(=O)Nc2ccc3c(c2)OCO3)c1	-5	6
Cc1[nH]c(=O)[nH]c(=O)c1CC(=O)N1C[C@@H]2C3CCC(CC3)[C@@H]2C1	1	-4
OCC1CCCCN1CCn1ccnc1-c1ccc2c(c1)OCCO2 (stereo not drawn)	7	1
COc1cc(CNc2nn[nH]n2)ccc1OCc1ccccc1C	-2	-8
O=C1Nc2ccccc2C12OCCCCO2	-1	1
CCC(C)N(Cc1csc(COc2ccccc2OC)n1)C(=O)Cc1ccccc1 (stereo not drawn)	-12	-1
CCOC(=O)C1(Cc2cccc(OC)c2)CCCN(C(=O)Cn2cnnn2)C1 (stereo not drawn)	3	2
COc1cc2c(cc1OC)C(CNC(=O)CC(C)C)N(Cc1ccc(F)cc1)CC2 (stereo not drawn)	8	12
CCCCN(CC(=O)N(CCc1c[nH]c2ccccc12)Cc1ccccc1)C(=O)Nc1ccccc1CC	13	23
Cc1cc(CO)c(C)n1-c1cccc(Cl)c1Cl	6	2
Cc1nc2ncnn2c(N2CCN(C(=O)c3sc4ccccc4c3Cl)CC2)c1Cc1ccccc1	-3	-8
CCc1nc2ccc(C(=O)N3CCN(C)CC3)cn2c1N(CC)CCN(C)C	-4	-7
Cc1cc(NC(=O)C2CCCN2S(C)(=O)=O)ccc1Br (stereo not drawn)	-2	-4
COc1cc(NC(=O)C=Cc2cc(F)cc3c2OCOC3)cc(OC)c1OC	-8	-12
CC/C(=N/NS(=O)(=O)c1ccccc1)c1ccc(C)cc1	2	8
Cc1cc(=O)oc2cc(Oc3nnc(-c4ccccc4)c4ccccc34)ccc12	-3	-10
COCCCNC(=O)c1cc(-c2ccccc2F)nc2cc(C(C)(C)C)nn12	-1	4
Cc1cc(NC(=O)CCN2C(=O)/C(=C/c3ccc(F)cc3)SC2=S)no1	-1	-5
CCNC(=O)N1CCN(S(=O)(=O)c2ccc(C)cc2C)CC1	5	2
CC(C)(C(=O)NCc1ccco1)c1ccc2c(c1)OCCO2	0	-4
Clc1ccc2c(Nc3ccccc3)nc(-c3ccccc3Cl)nc2c1	13	19
N#CC(C(=O)c1ccc(Br)o1)c1ccc(F)cn1 (stereo not drawn)	-6	-10
COCC(NC(=O)c1c(C)nc2cc(C)ccn12)c1ccnn1C (stereo not drawn)	2	4
CN(C)c1ccc(NC(=O)C2CCCC2)cc1CN(CC1CCCO1)C(=O)c1cccs1 (stereo not drawn)	25	28
COc1ccc(Cl)cc1CC1(C)C(=O)Nc2ccc(OC(F)(F)F)cc21 (stereo not drawn)	4	2
CN(C)c1cc(Nc2ccccc2)c2c3c(onc13)-c1ccccc1C2=O	-17	-23
Cc1ccc(-c2csc(NC(=O)C3CCCCC3C(=O)O)n2)c(C)c1 (stereo not drawn)	-5	-8
CC(=O)c1cc(CN2CC[C@@H](c3ccc4ccccc4c3)[C@H](O)C2)n(C)c1	-3	4
CCOC(=O)CN1C(=O)CN(C(=O)Cc2ccc(OC)cc2)CCC(OC)c2ccccc21 (stereo not drawn)	0	0
CCOc1ncc(C(=O)NCc2nccn2C)cc1Cl	-8	-7
COc1ccc(CN(C)C(=O)CC2(c3ccccc3F)CC(=O)N(C3CCCCC3)C2=O)cc1OC (stereo not drawn)	19	14
Cc1nn(S(=O)(=O)c2ccc3ccccc3c2)c(C)c1S(=O)(=O)N1CCCCCC1	2	-1
O=C1NCCCC[C@@H]1NS(=O)(=O)c1ccccc1C(F)(F)F	-2	-4
COc1cc(-c2ccc(=O)n(CC(=O)Nc3ccc(C(F)(F)F)cc3)n2)cc(OC)c1OC	13	8
O=C(NCCN1CCOCC1)[C@@]1(OCc2ccccc2)CC(OCc2ccc(C(F)(F)F)cc2)[C@H](O)[C@H](O)C1 (stereo partly drawn)	5	7
COc1ccc(CCNC(=O)CN2CC3=C(C2=O)C(c2ccc(F)cc2)NC(=O)N3C)cc1OC (stereo not drawn)	-2	2
O=C(NCc1ccccn1)c1cc2n(n1)CCN(Cc1cccc(F)c1)C2=O	10	13
COc1ccc(NC(=O)N2CC(=O)N3CC(C)c4ccccc4C3C2)cc1 (stereo not drawn)	-1	8
CC(=O)c1cccc(NC(=O)c2cc(-c3ccccc3)nc3ccccc23)c1	3	5
Cc1nnc(SCc2ccc(C(=O)N3CCN(c4ccccc4F)CC3)cc2)n1-c1ccc(F)cc1	3	13
Cc1nc(CN2CCN(C(=O)c3cn(CC4COc5ccccc5O4)nn3)CC2)cs1 (stereo not drawn)	1	-2
Cc1cc(NC(=O)c2ccnn2C)n(-c2nc3ccccc3s2)n1	-13	-19
COCC(=O)Nc1ccc(N(C)C)c(CN(Cc2ccc(F)cc2)S(C)(=O)=O)c1	-3	9

Whole records, quoted from the list. Screens in order: NPYLR7 ag | NPYLR7 ag max-min
Cc1ccc(C(=O)NCCc2cc3c(C)ccc(C)c3[nH]c2=O)cc1 is listed with -2 | 17
Cc1[nH]n(-c2cccc(Cl)c2)c(=O)c1C1=C([n+]2ccccc2)C(=O)N(CC(C)C)C1=O is listed with -3 | -1
Cc1cc(CO)c(C)n1-c1cccc(Cl)c1Cl is listed with 6 | 2
CC1=NN(CCN2CCCCC2)c2nc3c(c(=O)n(Cc4cccc(C)c4)c(=O)n3C)n2C1 is listed with 5 | 0
O=C(NCc1ccccn1)c1cc2n(n1)CCN(Cc1cccc(F)c1)C2=O is listed with 10 | 13

Next section:
SMILES	NPYLR7 ag	NPYLR7 ag max-min
COCc1cc(N2CCOC(c3ccc(Cl)cc3)C2)ncn1 (stereo not drawn)	5	-8
Cn1cccc1C(CNC(=O)C12CC3CC(CC(C3)C1)C2)N1CCCC1 (stereo not drawn)	-8	-10
CN1CC[C@H](N(Cc2ccccc2)C(=O)COc2ccccc2)C[C@H](O)C1	3	13
Cc1ccc(NC(=O)c2nc3nc(C)cc(C(F)F)n3n2)c(C)c1	-3	-4
COCC(=O)N1CCC(C(=O)Nc2cccc(-c3cccc(Cl)c3)c2)CC1	0	3
CC(NC(=O)C(C)(C)c1ccccc1)c1ccc2c(c1)OCCO2 (stereo not drawn)	-7	-5
CN(Cc1ccc(N(C)C)cc1)Cn1[nH]c(-c2cccs2)nc1=S	-5	-6
Cn1cnc(S(=O)(=O)NC(C)(C)CC(C)(C)C)c1Cl	7	7
COc1cc(/C=C(/C(=O)C(F)(F)F)c2ncccc2C)cc(OC)c1	-5	-5
CCC(C)n1c(C)c(C)n2c3c(=O)n(CCC(=O)OC)c(=O)n(C)c3nc12 (stereo not drawn)	0	7
Cc1cc2n(n1)CC(CNC1(c3ccc(Cl)cc3)CCC1)CN2 (stereo not drawn)	4	0
O=C(c1cc(-c2csc(N3CCCC3)n2)c[nH]1)N1CCCC1	-2	12
CC(=O)Nc1cccc(-n2ccnc2-c2cccc3nonc23)c1	6	1
CCNC(=O)NCC1CCN(Cc2nc3ccccc3n2C)C1 (stereo not drawn)	-1	-2
CS(=O)(=O)NCCSC1CCCCC1	-1	-1

3 of the compounds above, field by field.
compound: CCC(C)n1c(C)c(C)n2c3c(=O)n(CCC(=O)OC)c(=O)n(C)c3nc12 (stereo not drawn)
  NPYLR7 ag = 0 | NPYLR7 ag max-min = 7
compound: Cc1cc2n(n1)CC(CNC1(c3ccc(Cl)cc3)CCC1)CN2 (stereo not drawn)
  NPYLR7 ag = 4 | NPYLR7 ag max-min = 0
compound: O=C(c1cc(-c2csc(N3CCCC3)n2)c[nH]1)N1CCCC1
  NPYLR7 ag = -2 | NPYLR7 ag max-min = 12

Next compounds follow.
SMILES	NPYLR7 ag	NPYLR7 ag max-min
CC(C)NC(=O)NC(=O)CN1CCCc2c(C(=O)NC(C)C)cccc21	4	2
Nc1nc(Nc2ccccc2)nc(N2CCCC2)c1[N+](=O)[O-]	21	21
CC(C)C(CC#N)OC(=O)CCc1nc(-c2cc(Br)cs2)no1 (stereo not drawn)	0	-3
COc1ccc(C(NC(=O)C2CCN(Cc3cccc(C(F)(F)F)c3)CC2)c2ccccn2)cc1 (stereo not drawn)	4	1
Cc1csc(NC(=O)C2CC2)n1	0	-1
Nc1ncnc(NNc2c(Cl)cc(Cl)cc2Cl)c1[N+](=O)[O-]	8	13
Cc1nn(-c2ccccc2)c(N2CCN(C)CC2)c1CN(CCC(C)C)S(=O)(=O)c1ccc2ccccc2c1	3	6
COc1ccc(Cl)cc1-n1c(C)c(C)n2c3c(=O)n(CCCO)c(=O)n(C)c3nc12	-2	14
Cc1c(Cl)cn2c(=O)cc(CN3CCN(C(=O)c4ccco4)CC3)nc2c1Cl	6	4
N#Cc1c(N)n(-c2ccc(N)cc2)c2nc3ccccc3nc12	3	3
O=C1NC[C@@H](CCC(=O)N2CCOCC2)N2C[C@@H](NC(=S)NCCN3CCOCC3)C[C@@H]12	-9	-16
CC1=NC2=C(C(=O)CC(C)(C)C2)C(c2cccc(Oc3ccccc3)c2)C1C#N (stereo not drawn)	0	-9
Cc1cccc(NC(=NS(=O)(=O)c2ccccc2)c2ccccc2)n1	1	9
NC(=O)c1csc(-c2cnc3ccccc3c2)n1	9	2
CCOC(=O)N1CCC(=O)N(Cc2ccccc2)Cc2cc(OC)ccc21	-13	-6
COC(=O)c1cc(CNc2cccc(F)c2C#N)ccc1OC	7	6
CC(=O)c1sc(NC(=O)c2ccc(Br)cc2)nc1C	12	2
Clc1cccc(Cl)c1CNc1nn[nH]n1	-8	-15
C=CCc1cc(OC)ccc1OCC(=O)Nc1ccc2c(c1)OCO2	23	15
Cn1c(C2CCCN(S(C)(=O)=O)C2)nn(CC(=O)N2CCCc3ccccc32)c1=O (stereo not drawn)	-4	1
CCCCCc1ccc(C(=O)N(CCN2CCOCC2)CC(=O)N(Cc2ccc(F)cc2)Cc2sccc2C)cc1	1	11
CCOC(=O)c1sc2nc(CN3CCC(C(=O)OCC)CC3)[nH]c(=O)c2c1C(C)C	-3	6
CCOc1ccc(NC(=O)C/C=C/c2ccc(F)cc2)c(C(N)=O)c1	-9	-10
CS(=O)(=O)c1ccc(N2CCN(S(=O)(=O)c3cccs3)CC2)c([N+](=O)[O-])c1	14	20
CCOc1ccc(C2=NC(=Cc3ccco3)C(=O)O2)cc1OCC	0	13
Cc1c(C#N)c(NC(=O)CCl)n(C2CCCC2)c1C	5	3
COc1ccccc1C1NC(=O)N(C)C2=C1C(=O)N(CCC(=O)N1CCC(Cc3ccccc3)CC1)C2 (stereo not drawn)	-2	-3
O=c1ccc2ccc(Oc3cnn(-c4nc5ccccc5[nH]4)c(=O)c3Cl)cc2o1	0	0
CNc1nc(Nc2ccc(OC)cc2)c2nccnc2n1	0	10
Cc1ccc(-n2ncc(C(C)NC(=O)N3CCSCC3)c2C)cc1 (stereo not drawn)	1	-1
CSc1nc2c(c(=O)n1-c1ccc([N+](=O)[O-])cc1)SCC2	2	34
CC1(C)C2CCC1(C)C(NC(=O)N1CCCC1c1ccncc1)C2 (stereo not drawn)	6	1
c1ccc(CNc2nc(NCCc3ccncc3)c3sccc3n2)cc1	59*	42*
O=[N+]([O-])c1ccc(C=CS(=O)(=O)N2C=Cc3ccccc3C2c2c[nH]c3ccccc23)cc1 (stereo not drawn)	-6	-11
CCS(=O)(=O)Oc1ccc(CN(C(=O)Nc2ccccc2C(F)(F)F)C(C)C)cc1	-4	8
CN(CCc1ccccc1)Cc1nc(Cc2ccccc2Cl)no1	15	3
O=C1CCCCC1Sc1nnc(Cc2cccs2)n1C1CCCCC1 (stereo not drawn)	1	7
CC(C)c1nc(CNc2ccc3oc(=O)n(C)c3c2)cs1	4	2
CN1C(=O)CC(C(=O)NCCc2ccccc2)SC1=Nc1cccc(F)c1 (stereo not drawn)	1	2
COc1ccc(N2C(=O)CC(N(CCc3ccccc3)C(C)=O)C2=O)cc1 (stereo not drawn)	-4	-14

3 compounds picked at random from the list so far:
SMILES	NPYLR7 ag	NPYLR7 ag max-min
O=C1CCCCC1Sc1nnc(Cc2cccs2)n1C1CCCCC1 (stereo not drawn)	1	7
c1ccc(CNc2nc(NCCc3ccncc3)c3sccc3n2)cc1	59*	42*
CN1C(=O)CC(C(=O)NCCc2ccccc2)SC1=Nc1cccc(F)c1 (stereo not drawn)	1	2
